GLA inh pH 4.5 = blocks human alpha-galactosidase A at pH 4.5 | purified enzyme, 4-MU-alpha-Gal fluorescence, pH 4.5 | activity change, negative = inhibition, % at 105 µM | 230,000 tested, under 10 active; inconclusive = small, poorly fitted or top-dose-only inhibition, or a rising curve; inactive = flat fitted curve, though single readings scatter; no compound was filed as active;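 also: 0% = full activity with enzyme and -100% = basal without enzyme; dose as in the result columns while the protocol names 77 µM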
Target sequence (P06280 whole entry, looked up): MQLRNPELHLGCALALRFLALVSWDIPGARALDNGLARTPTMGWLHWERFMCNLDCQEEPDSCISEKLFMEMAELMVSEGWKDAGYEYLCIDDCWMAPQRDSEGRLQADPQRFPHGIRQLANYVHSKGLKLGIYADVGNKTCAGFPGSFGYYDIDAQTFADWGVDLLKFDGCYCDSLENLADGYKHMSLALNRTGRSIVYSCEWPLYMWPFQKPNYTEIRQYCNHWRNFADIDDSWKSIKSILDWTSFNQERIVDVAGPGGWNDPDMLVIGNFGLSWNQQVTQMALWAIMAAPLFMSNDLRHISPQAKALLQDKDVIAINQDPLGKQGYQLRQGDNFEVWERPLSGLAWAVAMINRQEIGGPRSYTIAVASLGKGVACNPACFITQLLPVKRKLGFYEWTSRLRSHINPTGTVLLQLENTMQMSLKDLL
miR-21 FLuc = raises the signal of a miR-21 reporter. HeLa miR-21 FLuc reporter, luciferase, 48 h. Potency, µM (highest dose often 38.3 µM), without a hit: top-dose reporter change, positive = more light. 340,000 tested, under 10 active. AID 2288; active = well fitted rising curve with a large enough effect; inconclusive = small, poorly fitted or top-dose-only effect; inactive = no such curve, though single readings can be large or run the other way;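 also: % of control where 0% means no effect; miR-21 action dims this reporter so a rising signal means less miR-21 action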
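HeLa cells stably expressing CMV-driven firefly luciferase with a downstream miR-21 binding sequence, endogenously expressing miR-21, were treated with titrations (up to about 40uM final) for 48 hours at 37 degree Celsius. Luciferase luminescence was read after lysis.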
* hit, by the source's call; ? = inconclusive; . = not tested or not shown; & = joins results of further samples. This is a subset (hit frequency here may not be typical).

SMILES | GLA inh pH 4.5 | miR-21 FLuc
C=CC(C)(O)CC/C=C(\C)CCC=C(C)C (stereo not given) | -9 | .
CN(C)CCCSc1ccccc1NC(=O)/C=C\c1ccccc1 | 0 | .
CCCC(NC(C)C(=O)N1C(C(=O)O)CC2CCCCC21)C(=O)OCC (stereo not given) | 0 | .
Cc1onc(-c2ccccc2Cl)c1C(=O)NC1C(=O)N2C1SC(C)(C)C2C(=O)O (stereo not given) | -2 | .
C=CCSCC=C | -3 | .
Cc1c(C(=O)O)c(O)cc2c1C(=O)c1c(O)c([C@H]3O[C@H](CO)[C@@H](O)[C@H](O)[C@H]3O)c(O)c(O)c1C2=O | -14&-9 | .
CC(=O)[C@@H]1CC[C@@H]2[C@@H]3C[C@H](C)C4=CC(=O)CC[C@@]4(C)[C@H]3[C@H](O)C[C@]21C | -4 | .
COC(=O)c1cccnc1 | -1 | .
O=C(Cn1ccnc1[N+](=O)[O-])NCCO | -7&5 | .
O=C(O)C(O)C(O)C(O)C(O)C(=O)O (stereo not given) | 20 | .
C=CCN1C(=O)C(CC(C)C)NC1=S (stereo not given) | -2 | .
NS(=O)(=O)c1cc2c(cc1C(F)(F)F)N[C@H](Cc1ccccc1)NS2(=O)=O | 5 | .
C[C@H]1[C@H](C)CC[C@]2(C(=O)O)CC[C@]3(C)C(=CCC4[C@@]5(C)C[C@@H](O)[C@H](O)[C@@](C)(CO)[C@@H]5CC[C@]43C)[C@H]12 (stereo not given in full) | -3 | .
CC(=O)NCCCCCC(=O)O | 6 | .
CC(C)(C)NC[C@H](O)COc1cccc2c1C[C@@H](O)[C@@H](O)C2 | 3 | .
O=C(O)CCC/C=C\C[C@H]1C(=O)C[C@@H](O)[C@@H]1/C=C/[C@@H](O)CCc1ccccc1 | -9 | .
CC1(C)OC2CC(=O)OCC23C1CC(=O)C1(C)C3CC[C@@]2(C)[C@H](c3ccoc3)OC(=O)C3OC312 (stereo not given in full) | -12 | .
O=C(O)CN1C(=O)c2cccc3cccc(c23)C1=O | -1 | .
CCCOC(=O)c1ccccc1 | -8 | .
CCCCCCC/C=C\CCCCCCCCC(=O)O | -22 | .
COc1ccc(-c2cc(=O)c3c(O)cc(O[C@H]4OC(COC5OC(C)C(O)C(O)[C@H]5O)C(O)C(O)C4O)cc3o2)cc1O (stereo not given in full) | -5 | .
O=c1cc(-c2ccc(O)cc2)oc2cc(O)ccc12 | ? | .
O=C1NC(=O)[C@@]2(CCOc3ccc(F)cc32)N1 | -2 | .
Nc1nccs1 | -1 | .
CCCCCC(=O)O[C@@]1(C(C)=O)CCC2C3CCC4=CC(=O)CC[C@@]4(C)C3CC[C@]21C (stereo not given in full) | -5 | .
CCN(CC)C[C@@H]1CCCCN1CC(=O)N1c2ccccc2C(=O)Nc2cccnc21 | -9 | .
COc1ccc(C(=O)Nc2nc3ccccc3n2CCOc2ccc(Cl)cc2)cc1 | . | -33%
COc1ccc(NC(=O)Cn2ccn(-c3ccc(C)c(C)c3)c(=O)c2=O)cc1Cl | . | 0%
Cc1nc2c3ccccc3nc(NNC(=O)CCC(=O)N3CCN(c4cc(Cl)ccc4C)CC3)n2n1 | . | -5%
CCCCC1CCC(CCCC(C)CCC(=O)O)CC1 (stereo not given) | . | 0%
Cc1oc(-c2cccc(Cl)c2)nc1Cn1c(SCc2ccccc2F)nc2ccncc21 | . | -14%
Cc1nn(CC(=O)NCCc2ccccc2)c(=O)c2c1sc1ccccc12 | . | -14%
CNC(=O)c1ccc(CSc2nc3ccncc3n2Cc2ccc(C)cc2)cc1 | . | 0%

A draw from above in order of heavy-atom count, highest first.
SMILES | GLA inh pH 4.5 | miR-21 FLuc
COc1ccc(-c2cc(=O)c3c(O)cc(O[C@H]4OC(COC5OC(C)C(O)C(O)[C@H]5O)C(O)C(O)C4O)cc3o2)cc1O (stereo not given in full) | -5 | .
Cc1nc2c3ccccc3nc(NNC(=O)CCC(=O)N3CCN(c4cc(Cl)ccc4C)CC3)n2n1 | . | -5%
Cc1c(C(=O)O)c(O)cc2c1C(=O)c1c(O)c([C@H]3O[C@H](CO)[C@@H](O)[C@H](O)[C@H]3O)c(O)c(O)c1C2=O | -14&-9 | .
Cc1oc(-c2cccc(Cl)c2)nc1Cn1c(SCc2ccccc2F)nc2ccncc21 | . | -14%
CCCCCC(=O)O[C@@]1(C(C)=O)CCC2C3CCC4=CC(=O)CC[C@@]4(C)C3CC[C@]21C (stereo not given in full) | -5 | .
COc1ccc(C(=O)Nc2nc3ccccc3n2CCOc2ccc(Cl)cc2)cc1 | . | -33%
CNC(=O)c1ccc(CSc2nc3ccncc3n2Cc2ccc(C)cc2)cc1 | . | 0%
O=C(O)CCC/C=C\C[C@H]1C(=O)C[C@@H](O)[C@@H]1/C=C/[C@@H](O)CCc1ccccc1 | -9 | .
NS(=O)(=O)c1cc2c(cc1C(F)(F)F)N[C@H](Cc1ccccc1)NS2(=O)=O | 5 | .
CCCC(NC(C)C(=O)N1C(C(=O)O)CC2CCCCC21)C(=O)OCC (stereo not given) | 0 | .
CN(C)CCCSc1ccccc1NC(=O)/C=C\c1ccccc1 | 0 | .
O=C(O)CN1C(=O)c2cccc3cccc(c23)C1=O | -1 | .
C=CC(C)(O)CC/C=C(\C)CCC=C(C)C (stereo not given) | -9 | .
C=CCN1C(=O)C(CC(C)C)NC1=S (stereo not given) | -2 | .
COC(=O)c1cccnc1 | -1 | .
C=CCSCC=C | -3 | .
Nc1nccs1 | -1 | .

Bioassay records from PubChem.
